# Source: PubChem BioAssay (National Center for Advancing Translational Sciences (NCATS))
# GLA inh pH 4.5 – qHTS Assay for Inhibitors of Human alpha-Galactosidase at pH 4.5; purified enzyme, 4-MU-alpha-Gal fluorescence, pH 4.5; activity change, negative = inhibition, % at 105 µM; 230,000 tested, under 10 active; AID 1467, 2008; inconclusive = small, poorly fitted or top-dose-only inhibition, or a rising curve; inactive = flat fitted curve, though single readings scatter; no compound was filed as active;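 also: 0% = full activity with enzyme and -100% = basal without enzyme; dose as in the result columns while the protocol names 77 µM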
# Target sequence (P06280 whole entry, looked up): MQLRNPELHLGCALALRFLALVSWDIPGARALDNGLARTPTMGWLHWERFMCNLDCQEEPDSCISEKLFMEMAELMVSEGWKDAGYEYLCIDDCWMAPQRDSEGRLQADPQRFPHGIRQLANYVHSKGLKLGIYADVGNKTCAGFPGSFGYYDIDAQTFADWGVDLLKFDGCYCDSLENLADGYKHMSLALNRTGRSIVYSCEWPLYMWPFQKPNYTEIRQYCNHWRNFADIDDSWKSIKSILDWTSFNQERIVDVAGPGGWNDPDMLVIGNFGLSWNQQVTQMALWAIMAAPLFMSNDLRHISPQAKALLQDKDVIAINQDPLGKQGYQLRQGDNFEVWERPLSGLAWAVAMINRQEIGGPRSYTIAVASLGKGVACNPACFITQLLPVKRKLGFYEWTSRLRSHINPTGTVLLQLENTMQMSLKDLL
# Rango release inh – qHTS Assay for Inhibitors of RanGTP induced Rango (Ran-regulated importin-beta cargo) - Importin beta complex dissociation; Snurportin-1 (Homo sapiens) + GTP-binding nuclear protein Ran (Homo sapiens) + Importin …; Biochemical FRET Rango-importin beta, RanGTP-induced dissociation; Potency, µM (top dose mostly 46.1 µM), inactives show at the highest dose activity change, negative = inhibition; 340,000 compounds, 0.071% hits; AID 540253, 2011; active means falling FRET ratio curve, often poorly fitted, with flat reads before Ran was added; inconclusive means other falling curves, or compound fluorescence or quenching; inactive means flat or rising ratio curve;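 also: potency is read from the fitted curve at half-maximal effect; % of control where 0% means no effect; nearly all actives have a fitted effect of over 45% in size; -100% = wells without RanGTP and RCC1; the record marks most hits as doubtful in a second field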
#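 Quantitative HTS using a FRET biosensor: 0.1 uM Rango, 0.25 uM importin beta, 0.6 uM Ran, 2 mM GTP, 0.2 uM RCC1 final, PBS with DTT, Tween-20 and BSA. Post-read taken 45 min after Ran addition.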
# miR-21 FLuc – qHTS Assay for Modulators of miRNAs and/orActivators of miR-21. HeLa miR-21 FLuc reporter, luciferase, 48 h. Potency, µM (highest dose often 38.3 µM), inactives show at the highest dose reporter change, positive = more light. 340,000 tested, under 10 active. AID 2288, 2010; active = well fitted rising curve with a large enough effect; inconclusive = small, poorly fitted or top-dose-only effect; inactive = no such curve, though single readings can be large or run the other way;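 also: % of control where 0% means no effect; miR-21 action dims this reporter so a rising signal means less miR-21 action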
#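 Compounds were titrated across several concentrations (up to approximately 40 uM) and incubated 48 hours with HeLa miR-21-FLuc reporter cells (miR-21 target sequence downstream of FLuc, endogenous miR-21). Readout was firefly luciferase luminescence after lytic detection reagent.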
# Rango-impB inh – qHTS Assay for Inhibitors of Rango (Ran-regulated importin-beta cargo) - Importin beta complex formation | Potency, µM (top dose mostly 92.2 µM), inactives show top-dose inhibition of complex formation | 340,000 compounds, 0.031% hits | Rango CFP/YFP FRET sensor + importin beta, 45 min | Importin subunit beta-1 (Homo sapiens), Q14974; active = rising FRET ratio curve, often small or poorly fitted; inconclusive = mostly compound fluorescence or quenching in the first reads; inactive = flat curves in all reads;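 also: potency is read from the fitted curve at half-maximal effect; 0% = DMSO wells and 100% = buffer wells lacking importin beta; nearly all actives have a fitted effect of over 15% in size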
#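 FRET biosensor (snurportin 1 IBB flanked by EYFP and cerulean), 50 nM, with compound 5 min, then 0.125 microM importin beta in PBS, 1 mM DTT, 0.02% Tween-20, 0.1% BSA. CFP/YFP ratio read after 45 min at room temperature; pre-read flags interference.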
# * = called active by the depositor; ? = inconclusive; . = not tested or not shown.
GLA inh pH 4.5	Rango release inh	miR-21 FLuc	Rango-impB inh	Compound
-4	-16%	-37%	-4.0%	Cc1ccc(Nc2nc(CSc3n[nH]c(N)n3)cs2)cc1
5	-3%	-18%	-0.2%	Cc1[nH]c2ccc(-c3nnc(SCC(=O)c4ccccc4F)o3)cc2c1C
.	-19%	.	-0.8%	O=C(Nc1ccc(NC(=S)NC(=O)c2ccccc2Cl)cc1)c1cccc(Cl)c1
-8	5%	9%	0.3%	O=C(CCNS(=O)(=O)c1cccc2nonc12)N1CCN(c2cccc(Cl)c2)CC1
-10	-2%	2%	3.2%	O=C(CCN1C(=O)c2ccccc2C1=O)NC1=NCCS1
-5	-29%	-1%	?	O=C(c1ccco1)N1CCN(C(=O)c2cnn3c(C(F)(F)F)cc(-c4cccs4)nc23)CC1
9	-4%	-26%	1.5%	O=C(CNc1ccccc1)c1ccc([N+](=O)[O-])cc1
5	-2%	4%	-0.4%	OCC1CCCC(n2cnc3c(=S)nc[nH]c32)O1 (stereo unspecified)
-9	-1%	-4%	0.1%	CCOC(=O)C1CCCN(C(=O)C2CCCN(S(C)(=O)=O)C2)C1 (stereo unspecified)
-1	?	-12%	-0.4%	COC(=O)c1sccc1NC(=O)/C=C\c1ccc(Cl)cc1Cl
-6	9%	-4%	?	COc1ccccc1CNc1n[nH]c(NCc2ccccc2OC)n1
0	0%	-14%	5.2%	COc1cc2c(cc1OC)CN(C(=O)c1ccc(Br)o1)CC2
-7	-13%	-4%	3.6%	C/C(=N\NC(=O)COc1ccc([N+](=O)[O-])cc1)C(C)(C)C
-1	-14%	-3%	2.7%	O=C(NCC1CCCO1)c1cccc(-n2cnnn2)c1 (stereo unspecified)
.	10%	-10%	2.4%	Cc1ccccc1N1CCN(CC(=O)Nc2nccs2)CC1
3	2%	0%	0.7%	COc1ccc(Sc2nnc(-c3ccccc3)cc2C#N)cc1
.	-9%	.	-5.9%	COc1ccc(S(=O)(=O)Nc2ccc3c(c2)C(=O)N([C@H](C)CO)C[C@H](C)[C@@H](CN(C)S(=O)(=O)c2cccs2)O3)cc1
-2	22%	-36%	4.4%	Cc1ccc(OCCSc2nc3ncnc(N)c3[nH]2)cc1
-4	0%	4%	-0.5%	CCCCn1c(N)c(Br)c(=O)[nH]c1=O
0	-13%	18%	-0.4%	Cc1c(CCOC(=O)c2ccc(N3CCOCC3)c([N+](=O)[O-])c2)sc[n+]1CC#N
-8	1%	-38%	7.2%	CSc1cccc(NC(=O)c2cnn3ccccc23)c1
-10	-23%	-5%	-3.3%	CCC(NC(=O)c1ccccc1NC(=O)c1ccco1)C(=O)NNC(=O)c1ccc(OC)cc1 (stereo unspecified)
.	15%	-4%	2.6%	O=C(COc1ccc(F)cc1)N(Cc1cccs1)C1CCS(=O)(=O)C1 (stereo unspecified)
-14	6%	-1%	-0.1%	O=C(O)c1ccc(/C=N/NC(=S)NCc2ccccc2)cc1
.	0%	-6%	-0.9%	CCCCN(CC)Cc1c(C)[nH]c2c(ccc3ccccc32)c1=O
.	-8%	-1%	-0.4%	CC(C)(C)NC(=O)CN(Cc1ccco1)C(=O)CCC(=O)Nc1nccs1
.	-19%	-5%	?	CC(=O)Nc1ccc(S(=O)(=O)N2C(C)CCCC2C)cc1 (stereo unspecified)
3	12%	-36%	-0.6%	O=C(OCC#CCSc1nnc(-c2ccc(Br)cc2)o1)c1cccs1
14	0%	-31%	0.9%	CC1CCc2c(sc(NC(=O)COC(=O)C3CCCO3)c2C#N)C1 (stereo unspecified)
-3	10%	?	0.6%	COc1ccc(Cn2c(-c3ccc(C)cc3)c[n+]3ccccc23)cc1
-1	.	11%	.	Cc1cc2oc(=O)cc(CN3CCN(C/C=C/c4ccccc4)CC3)c2cc1O
-19	-11%	-4%	1.3%	Cc1ccc(/C=C/C(=O)N2CCN(S(=O)(=O)c3c(C)c(C)cc(C)c3C)CC2)o1
-3	8%	-7%	8.4%	Cc1c(Br)c([N+](=O)[O-])nn1CC(=O)N1CCCc2ccccc21
0	2%	2%	6.8%	O=P(O)(CCCP(=O)(O)CCc1ccccc1)CCc1ccccc1
-7	-7%	.	1.0%	CN(C/C=C/C#CC(C)(C)C)Cc1cccc2ccccc12
-15	1%	4%	-1.0%	COC(=O)c1[nH]c2ccc(C)cc2c1NC(=O)CN1CCCC(C)(C)C1
-1	0%	2%	0.6%	CCOc1ccc(C2/C(=C(\O)c3cccc(OC)c3)C(=O)C(=O)N2c2cc(C)on2)cc1OC (stereo unspecified)
-2	-4%	16%	-2.3%	CCOC(=O)c1c(NC(=O)CN2C(=O)NC(C)(c3ccc(OC(F)F)cc3)C2=O)sc(C)c1C (stereo unspecified)
.	37%	21%	2.6%	O=C(Nc1ccc(Oc2cccnc2)cc1)C1CCN(Cc2cccc(Cl)c2)CC1
-2	-1%	-2%	-3.2%	COc1ccccc1CNC(=O)c1ccc(CS(=O)(=O)c2ccccc2OC)o1
4	-6%	6%	-2.6%	N#CC1=C(N)Oc2n[nH]c(-c3ccc(F)cc3)c2C1c1cccc(OC(=O)N2CCOCC2)c1 (stereo unspecified)
.	-3%	.	2.9%	CC1(C)Oc2cc3oc(-c4cc(O)cc(O)c4)cc3cc2CC1O (stereo unspecified)
-6	-13%	-9%	?	Cc1c(NC(=O)CSc2nc3c(cnn3-c3ccccc3)c(=O)[nH]2)c(=O)n(-c2ccccc2)n1C
2	9%	-1%	-2.8%	Cc1c(C(=O)O)oc2ccc(S(=O)(=O)NCc3ccc(F)cc3)cc12
2	17%	-2%	-0.1%	Cc1ccc(CNC(=O)CO/N=C/c2ccc(C(C)(C)C)cc2)cc1
2	3%	-10%	-1.7%	Cc1ncc(N=Nc2ccccc2Cl)c(-c2ccccc2)n1
-5	-5%	6%	1.3%	O=C(COc1cc(F)ccc1[N+](=O)[O-])Nc1ccc(N2CCOCC2)cc1
.	6%	1%	-0.2%	CCn1c(SCC(=O)N2CCN(C)CC2)nc2c1c(=O)n(C)c(=O)n2C
6	0%	-20%	1.6%	COc1cccc(C(O)Cc2nc3ccccc3n2C)c1OC (stereo unspecified)
-4	0%	-5%	7.5%	CCC(C(=O)Nc1cc(Cl)c(OC)cc1OC)c1ccccc1 (stereo unspecified)
7	0%	-9%	-0.6%	CCOC(=O)C(C)n1cnc2c(oc3ccccc32)c1=O (stereo unspecified)
.	-4%	.	12%	O=C(NCC(c1cccs1)N1CCOCC1)C1CCN(S(=O)(=O)c2c(Cl)cccc2Cl)CC1 (stereo unspecified)
.	-9%	-1%	-2.4%	CC(C)(CN1CCCC1)NC(=O)C1CCC(=O)N(CCCN2CCOCC2)C1 (stereo unspecified)
-6	16%	0%	4.0%	COc1ccc(NC(=O)C2CCCN2S(=O)(=O)c2ccc(C)cc2)cc1 (stereo unspecified)
-12	7%	-11%	0.7%	Cc1ccc(C(=O)NCC(=O)OCC(=O)c2cc(C)n(Cc3ccco3)c2C)cc1
-19	4%	1%	1.5%	Cc1ccc(N(C(C)C(=O)N2CCOCC2)S(C)(=O)=O)cc1C (stereo unspecified)
.	0%	.	0.3%	Cn1cc(C(=O)C(=O)N2CCCCC2)c2ccccc21
1	18%	-1%	-1.4%	Cc1noc(C)c1COC(=O)COc1ccc2c(C)cc(=O)oc2c1
4	-6%	-3%	2.1%	CCCOC(=O)CCc1n[nH]c(=O)[nH]c1=O
-15	-2%	-4%	?	COc1ccc2c(c1)CCCC21SC(NC(C)=O)=NN1C(C)=O (stereo unspecified)

# (cont.)
GLA inh pH 4.5	Rango release inh	miR-21 FLuc	Rango-impB inh	Compound
-1	-23%	-3%	1.0%	CCOC(=O)N1CCC(N2C(=O)c3ccccc3C2Nc2ccc(Cl)cn2)CC1 (stereo unspecified)
9	1%	-8%	6.4%	O=C(COC(=O)C1(c2ccccc2F)CCCC1)N1CCN(C(=O)c2ccco2)CC1
.	-9%	.	1.4%	Cc1ccc(NC(=O)COC(=O)CN2CCCCCC2=O)cc1C
2	3%	-3%	-0.3%	Cc1cc(C)n(C(=O)c2ccc([N+](=O)[O-])cc2[N+](=O)[O-])n1
0	-11%	-3%	-0.2%	COC(=O)c1ccccc1NC(=O)c1nc2nc(C)cc(C(F)F)n2n1
-3	13%	4%	3.0%	Cc1ccccc1NS(=O)(=O)c1ccc(OCC(=O)NCc2cccnc2)cc1
-5	0%	-10%	-4.4%	CCOC(=O)C1=C(C)N(c2ccccc2)C(=O)NC1c1cccc([N+](=O)[O-])c1 (stereo unspecified)
-15	-12%	3%	4.3%	COc1ccc(NC(=O)c2c(N)no[n+]2[O-])cc1
.	-4%	.	0.1%	CCN(CC)c1ccc(S(=O)(=O)N2CCCCC2)cc1NC(=O)C1=COCCO1
.	5%	-16%	0.5%	COc1ccc(C(=O)Nc2ccnn2C2CCN(C(=O)c3cccnc3)CC2)cc1
.	-3%	.	-2.7%	Cn1nnnc1SCC(=O)Nc1ncc(Cl)cc1Cl
-2	-11%	2%	3.0%	O=C(CSc1cccc2cccnc12)OCC(=O)c1ccc(Br)cc1
.	1%	.	1.0%	O=C(Cn1cnc2ccccc2c1=O)NNC(=O)c1ccccc1F
.	7%	.	6.1%	Cn1c(OCc2ccc3c(c2)OCO3)nc2c1c(=O)n(Cc1cccc(Cl)c1)c(=O)n2C
-12	22%	.	2.9%	COc1ccc(-c2c(C)cc3oc(=O)cc(-c4ccccc4)c3c2C)cc1
-3	1%	-9%	0.6%	COc1ccccc1OCCn1cc(/C=N/n2cnnc2)c2ccccc21
3	2%	-3%	2.3%	CCOC(=O)c1nnn(-c2nonc2NC(C)=O)c1C
-15	17%	-10%	-1.0%	CC(C)N(Cc1nc(-c2ccc(Cl)cc2)no1)C(=O)/C=C/c1ccccc1
4	2%	-1%	2.0%	COc1ccc2c(c1)[nH]c1c(=O)n(CCC3=CCCCC3)cnc12
1	1%	-4%	-4.1%	Cc1ccc2cc3cc(C(=O)N(CC(=O)NC4CCCC4)c4cccc(C)c4C)sc3nc2c1
1	25%	-1%	5.6%	CCC(=O)Nc1cc(C(=O)O)ccc1Sc1ccc(Cl)cc1
-8	15%	.	-3.5%	COc1cc2oc(=O)cc(-c3ccc(-c4ccc(F)c(Cl)c4)cc3)c2c(OC)c1OC
2	-10%	-2%	?	CCCSC1=C(C#N)C(c2cccnc2)C(C(=O)OCC)=C(c2ccccc2)N1 (stereo unspecified)
0	0%	-3%	-0.6%	CCN1C(=O)CC(N2CCC(C(=O)N3CCOCC3)CC2)C1=O (stereo unspecified)
-15	14%	-2%	1.0%	COC(=O)c1ccc(NC(=O)Nc2ccc(F)c(Cl)c2)cc1
-3	7%	-10%	-1.2%	COc1cccc(C(=O)Nc2c3c(nc4c2CCC4)CCCC3)c1

# Ordered by molecular weight (high to low): some entries from above.
GLA inh pH 4.5	Rango release inh	miR-21 FLuc	Rango-impB inh	Compound
1	1%	-4%	-4.1%	Cc1ccc2cc3cc(C(=O)N(CC(=O)NC4CCCC4)c4cccc(C)c4C)sc3nc2c1
-8	15%	.	-3.5%	COc1cc2oc(=O)cc(-c3ccc(-c4ccc(F)c(Cl)c4)cc3)c2c(OC)c1OC
2	-10%	-2%	?	CCCSC1=C(C#N)C(c2cccnc2)C(C(=O)OCC)=C(c2ccccc2)N1 (stereo unspecified)
-15	17%	-10%	-1.0%	CC(C)N(Cc1nc(-c2ccc(Cl)cc2)no1)C(=O)/C=C/c1ccccc1
1	25%	-1%	5.6%	CCC(=O)Nc1cc(C(=O)O)ccc1Sc1ccc(Cl)cc1
0	0%	-3%	-0.6%	CCN1C(=O)CC(N2CCC(C(=O)N3CCOCC3)CC2)C1=O (stereo unspecified)
-3	7%	-10%	-1.2%	COc1cccc(C(=O)Nc2c3c(nc4c2CCC4)CCCC3)c1

# Only part of the results is shown, so the mix of outcomes need not match the whole.
